PINK1 expr mod: changes PINK1 expression; 0.2% of 410,000 active; Potency, µM (titrated, usually from 76.6 µM), without a hit: at the highest dose activation (PINK1 increase), usual class: activators; PINK1 immunofluorescence, high-content cytometry, 24 h; active = well fitted activation curve with a large enough effect; inconclusive = small, poorly fitted or top-dose-only effect; inactive = flat fitted curve, though single readings scatter; cell line not stated here;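 also: potency is read from the fitted curve at half-maximal effect; % of control where 0% means no effect; nearly all actives have a fitted effect of over 65% in size; a mitochondrial uncoupler was the plate control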
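Fluorescence from anti-PINK1 antibody, together with nuclear and cell stains, was scanned on a laser-scanning cytometer. Before staining, stable-line cells were incubated 24 hours with compounds at 5 concentrations; primary antibody 12 h at 10 degrees C.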
D2 agonist: human D2 receptor agonism in beta-arrestin assay | activation, % (no concentration beside the values) | 0.084% of 360,000 active | DiscoveRx PathHunter D2 beta-arrestin, luminescence, 90 min; 100% = 57 uM dopamine signal | P14416; in the data active = activation above about 40%; inconclusive = about 15% to 40%; inactive = below about 15%; also: compound concentration not given in the record; the text of the record calls up to 30% inactive
Target sequence (P14416 whole entry, looked up): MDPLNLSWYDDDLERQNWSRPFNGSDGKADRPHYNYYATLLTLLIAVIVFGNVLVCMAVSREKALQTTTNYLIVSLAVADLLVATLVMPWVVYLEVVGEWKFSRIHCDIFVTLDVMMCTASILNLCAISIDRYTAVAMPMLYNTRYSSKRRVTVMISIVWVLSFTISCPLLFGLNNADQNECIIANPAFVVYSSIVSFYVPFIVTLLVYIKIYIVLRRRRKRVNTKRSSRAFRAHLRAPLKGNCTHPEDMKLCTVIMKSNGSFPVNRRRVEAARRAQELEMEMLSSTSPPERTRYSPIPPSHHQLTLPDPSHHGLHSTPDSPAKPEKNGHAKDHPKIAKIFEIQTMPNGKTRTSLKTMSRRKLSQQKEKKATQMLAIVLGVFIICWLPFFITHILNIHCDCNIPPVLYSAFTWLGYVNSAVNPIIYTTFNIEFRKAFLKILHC
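Agonist mode: compounds alone added to overnight-plated D2 PathHunter cells for 90 min at 37 C, with 57 uM final dopamine (EC100) defining full response. Beta-arrestin recruitment detected by chemiluminescent reagent, read after 1 h at ambient temperature.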
D2 potentiator: potentiates the human D2 dopamine receptor allosterically; 0.23% of 360,000 active; AID 624464; P14416; potentiation, % (concentration not given with the values); DiscoveRx D2 beta-arrestin cells, luminescence, 90 min; 100% = 57 uM dopamine signal; active = potentiation of 50% or more; inconclusive = 30% to 50%; inactive = 30% or less;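 also: compound concentration not given in the record; tested on top of an EC20 dose of dopamine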
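PathHunter D2 cells, attached overnight at 37 deg C, received compound in DMSO plus dopamine at EC20 (50 nM final) for 90 min at 37 deg C. Beta-arrestin recruitment was read as luminescence after 1 h with detection reagent at ambient temperature.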
TRPML1 inh: inhibitors of human TRPML1 channel | AID 624415 | activity change, negative = inhibition, % (concentration not given with the values) | 0.02% of 390,000 active | Q9GZU1 | TRPML1-inducible cells, Ca2+ dye fluorescence, FDSS; stronger effect = lower value; inhibition of EC80 agonist-evoked calcium signal; in the data active means activity change below about -50%; inconclusive means about -30% to -50%; inactive means above about -30%;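 also: stimulus is agonist 54-4 at its EC80 concentration; % is scaled to controls: 0 for no effect and ±100 for the full control effect; compound concentration not given in the record; the text of the record puts the active cut at -80%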
Target sequence (Q9GZU1 whole entry, looked up): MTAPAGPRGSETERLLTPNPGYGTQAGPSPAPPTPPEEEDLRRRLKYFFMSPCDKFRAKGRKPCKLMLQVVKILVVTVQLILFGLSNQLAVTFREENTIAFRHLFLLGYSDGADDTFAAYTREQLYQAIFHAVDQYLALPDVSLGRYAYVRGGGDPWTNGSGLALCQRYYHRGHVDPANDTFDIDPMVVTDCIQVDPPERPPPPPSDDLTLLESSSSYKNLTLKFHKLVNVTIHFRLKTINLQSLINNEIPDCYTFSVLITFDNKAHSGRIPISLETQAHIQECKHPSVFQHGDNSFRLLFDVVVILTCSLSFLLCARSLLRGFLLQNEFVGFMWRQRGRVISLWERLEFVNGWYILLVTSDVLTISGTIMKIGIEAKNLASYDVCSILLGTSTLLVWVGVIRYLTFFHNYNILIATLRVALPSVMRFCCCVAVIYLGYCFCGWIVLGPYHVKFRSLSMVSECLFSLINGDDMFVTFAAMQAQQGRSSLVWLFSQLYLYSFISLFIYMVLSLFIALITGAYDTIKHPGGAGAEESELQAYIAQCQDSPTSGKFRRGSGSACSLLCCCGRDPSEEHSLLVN
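Tet-induced TRPML1-DL cells loaded with Ca8 no-wash calcium dye were read kinetically on FDSS. Compound addition was followed by EC80 agonist 54-4 (4 uM final); inhibition was read over 110 s.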
Six1-Eya2 inh: Six1/Eya2 interaction inhibition | Q15475+O00167 | AlphaScreen GST-Six1/His-Eya2 binding, biochemical; stronger effect = lower value; control for the full effect not named in the record | activity change, % (no concentration beside the values) | 0.56% of 360,000 active | AID 651725; in the data active = activity change below about -65%; inconclusive = about -30% to -65%; inactive = above about -30%; also: % is scaled to controls: 0 for no effect and ±100 for the full control effect; compound concentration not given in the record
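Compounds are tested against tagged Six1 and Eya2 proteins bridged by glutathione donor and nickel acceptor beads; after a one-hour incubation at 37 °C without light, AlphaScreen emission is recorded.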
TRPML1 ag: human mucolipin-1 channel agonism | Q9GZU1 | TRPML1-expressing cells, Ca2+ dye fluorescence, FDSS; host cell line not named in the record; reference of the full effect not given here | activation, % (concentration not given with the values) | 0.12% of 410,000 active | AID 624414; in the data active = activation above about 50%; inconclusive = about 30% to 50%; inactive = below about 30%; also: 0% is about no effect; the text of the record puts the active cut at 80%
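Calcium fluorescence on an FDSS kinetic reader gave the read-out. Tet-induced TRPML1-DL cells were plated overnight, dye-loaded (Ca8 with quencher, 45-90 min, room temperature, dark), then read 110 s after compound addition, and again 110 s after 4uM final 54-4 (EC80).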
The depositor's hits bear a star; ? = inconclusive; . = not tested or not shown; [ ] = dose if it differs, or a comment.

SMILES	PINK1 expr mod	D2 agonist	D2 potentiator	TRPML1 inh	Six1-Eya2 inh	TRPML1 ag
Cc1ccc(NS(=O)(=O)c2ccccc2)c([N+](=O)[O-])c1	-0.8%	-1.8	-0.3	-9.3	1.9	-0.5
COc1ccc(CNC(=O)CCNS(=O)(=O)c2ccc(Br)s2)cc1	1.2%	-0.2	17.6	9.0	1.5	-1.3
O=C(COC(=O)c1ncc(Cl)c(Cl)c1Cl)Nc1ccc(Cl)cn1	5.1%	-2.1	16.6	40.1	-14.0	-0.2
COc1cccc(-c2nnc(SCC(=O)N3CCCC3=O)n2-c2ccccc2)c1	.	1.1	-2.5	-15.3	-0.6	0.7
CC(C)c1cnc2c(c1SCC(=O)Nc1ccccc1C(F)(F)F)c(=O)n(C)c(=O)n2C	-0.8%	.	.	-17.5	.	1.6
O=C(Nc1ccon1)c1cccc(Cl)c1	1.2%[38.3 µM]	-1.8	-11.8	-26.3	-1.1	0.3
CCc1ccc2[nH]c(=O)c(CN(Cc3ccc(OC)cc3)Cc3nnnn3CCOC)cc2c1	-2.9%	-1.9	-37.3	23.1	-6.2	-1.0
Cc1ccc2cc([N+](=O)[O-])ccc2n1	1.2%	2.4	-8.2	2.5	5.6	0.6
COc1ccc(CNC(=O)Cn2ccc3cc(S(=O)(=O)N4CCCCC4)ccc32)c(OC)c1	1.2%	.	.	34.0	.	2.2
CC(C)CNC(=O)C1c2ccccc2Oc2ccccc21	-0.5%	-5.0	-23.1	-1.5	19.2	-0.2
CC(=O)c1ccccc1OCc1ccc(C(=O)c2ccccc2)cc1	0.0%	4.2	-3.2	.	-11.7	.
COC(=O)c1ccc(NC(=O)C2CC(=O)N(c3ccc(C)cc3)C2)cc1 (configuration not stated)	-3.0%	-2.7	-3.2	3.0	1.8	-0.7
CC1C(=O)N2CCCc3cc(NS(=O)(=O)c4ccccc4)cc1c32 (configuration not stated)	1.7%	4.5	9.7	21.6	-1.4	0.0
O=C(COC(=O)c1cc(Br)ccc1O)NC12CC3CC(CC(C3)C1)C2	-3.4%	0.1	-3.5	-7.8	4.6	0.2
COc1ccc(NC(=O)C2CC(c3ccc(Cl)cc3)=NO2)cc1 (configuration not stated)	0.7%	-3.3	-5.1	9.4	-4.4	1.1

Complete entries, quoted from the list. Order of screens: PINK1 expr mod, D2 agonist, D2 potentiator, TRPML1 inh, Six1-Eya2 inh, TRPML1 ag
Entry for COc1ccc(CNC(=O)CCNS(=O)(=O)c2ccc(Br)s2)cc1 : 1.2%, -0.2, 17.6, 9.0, 1.5, -1.3
Entry for CCc1ccc2[nH]c(=O)c(CN(Cc3ccc(OC)cc3)Cc3nnnn3CCOC)cc2c1 : -2.9%, -1.9, -37.3, 23.1, -6.2, -1.0
Entry for COC(=O)c1ccc(NC(=O)C2CC(=O)N(c3ccc(C)cc3)C2)cc1 (configuration not stated) : -3.0%, -2.7, -3.2, 3.0, 1.8, -0.7
Entry for CC(C)CNC(=O)C1c2ccccc2Oc2ccccc21 : -0.5%, -5.0, -23.1, -1.5, 19.2, -0.2
Entry for COc1ccc(CNC(=O)Cn2ccc3cc(S(=O)(=O)N4CCCCC4)ccc32)c(OC)c1 : 1.2%, ., ., 34.0, ., 2.2

Continued.
SMILES	PINK1 expr mod	D2 agonist	D2 potentiator	TRPML1 inh	Six1-Eya2 inh	TRPML1 ag
Cn1c(-c2ccc(F)cc2)cnc1SCC(=O)Nc1ccccc1N1CCOCC1	-1.1%	-3.4	2.4	52.0	0.0	1.4
Cn1ccnc1SCC(=O)c1ccc(C#N)cc1	2.7%	-5.4	-4.0	2.0	5.7	0.6
COc1ccccc1C(=O)Nc1ccc(OCC(=O)N2C(C)CCCC2C)cc1 (configuration not stated)	0.2%	-3.2	-1.6	-14.3	-5.3	-0.6
COc1ccccc1-c1noc2c1C(=O)N(Cc1cn(-c3ccccc3OC)nn1)CC2	0.8%	.	.	.	-10.0	-0.6
CCNc1ccc(Br)cc(C(=O)/C=C/c2ccccc2Cl)c1=O	-1.7%[38.3 µM]	-5.1	-12.6	10.6	-5.9	1.4
Cc1nn(-c2ccccn2)c2c1C(c1ccncc1)C1=C(CC(C)(C)CC1=O)N2 (configuration not stated)	-3.3%[38.3 µM]	-0.5	2.6	1.2	-15.3	-0.1
CN(C)S(=O)(=O)N1CCC(n2nccc2NC(=O)CCCc2ccccc2)CC1	0.4%	4.5	-7.1	-7.3	5.5	0.1
CCN(CC(=O)Nc1c(F)cccc1F)C(=O)CCC(=O)c1ccc(F)cc1	-0.6%	-1.0	-2.5	-2.2	2.2	-1.0
O=C(NCCN1CCOCC1)c1ccc2c(c1)N(Cc1ccc(Cl)cc1)CCS2	-0.6%	2.5	-14.6	10.9	0.0	1.7
O=C1CCCCCCC1Sc1ccccc1[N+](=O)[O-] (configuration not stated)	1.1%	0.5	11.7	15.0	-9.8	0.4
COc1ccc(C2(C)NC(=O)NC2=O)cc1OC (configuration not stated)	-0.2%	-2.7	-2.3	8.6	-0.2	1.4
CSCCC(NC(=O)c1cccc(S(=O)(=O)N2CCN(C(C)=O)CC2)c1)c1nc2ccccc2[nH]1 (configuration not stated)	1.9%	-2.9	-1.9	3.9	-7.8	3.0
O=C(COC(=O)CNC(=O)c1ccccc1)NC12CC3CC(CC(C3)C1)C2	-0.8%	-1.2	-16.8	-5.7	3.6	-0.2
COc1cc(/C=C/C(=O)OCC(=O)NCc2ccc3c(c2)OCO3)cc(OC)c1OC	1.8%	4.8	7.3	-0.7	2.7	1.9
Cc1cc2cc(CN(CC3CCCO3)C(=O)c3cnccn3)c(=O)[nH]c2cc1C (configuration not stated)	-0.1%	-1.8	-8.6	-13.8	5.0	-0.5

Exported in CSV form: two of the compounds above.
Molecule,PINK1 expr mod,D2 agonist,D2 potentiator,TRPML1 inh,Six1-Eya2 inh,TRPML1 ag
O=C(NCCN1CCOCC1)c1ccc2c(c1)N(Cc1ccc(Cl)cc1)CCS2,-0.6%,2.5,-14.6,10.9,0.0,1.7
O=C1CCCCCCC1Sc1ccccc1[N+](=O)[O-] (configuration not stated),1.1%,0.5,11.7,15.0,-9.8,0.4

(next part)
SMILES	PINK1 expr mod	D2 agonist	D2 potentiator	TRPML1 inh	Six1-Eya2 inh	TRPML1 ag
Nc1nnnn1/N=C/c1ccccc1OCc1ccccc1	2.4%	1.6	3.8	-6.5	-3.9	1.6
CCOC(=O)c1ccc(NC(=O)c2nccnc2C(=O)O)cc1	0.6%	-3.5	-6.8	0.0	3.0	0.3
CCCNC(=S)NC1CC2CCCC(C1)N2Cc1ccccc1OC (configuration not stated)	1.2%	-3.3	-22.2	22.9	1.2	-0.3
Cc1ccccc1NC(=O)Cc1nc(COC(=O)CSc2ccc(F)cc2)cs1	1.7%	-3.9	-4.4	-3.1	7.3	0.0
CCCNC(=O)c1ccc(COc2ccc(C)cc2)o1	-1.0%	7.8	-2.6	5.9	4.4	-1.6
COc1cccc(C(=O)N(Cc2cccc(F)c2)C2CCS(=O)(=O)C2)c1 (configuration not stated)	-1.7%	.	.	-11.3	.	-0.9
COc1ccc(CC(=O)NCc2ccc3c(c2)cc(C)n3C)cc1OC	-1.5%	-1.7	-38.0	22.2	-5.9	3.1
CC1(c2nnc(-c3ccc(Cl)cc3)o2)CC(c2ccc(Cl)cc2)=NO1 (configuration not stated)	-1.1%	-3.3	-4.4	-4.1	5.9	0.9
COc1ccc(S(=O)(=O)N2CCCOC2CNC(=O)C(=O)NCCc2ccco2)cc1 (configuration not stated)	1.6%	0.2	-2.0	-2.4	-0.9	0.2
NC(Cc1ccccc1)c1csc(Nc2nncc3ccccc23)n1 (configuration not stated)	-1.4%	-3.9	-2.5	.	9.8	0.6
O=C(NC(=S)Nc1ccc(Br)cc1)C1CCCCC1	14.3%	3.6	1.3	-11.7	7.7	1.2
CC(C)(C)C(=O)n1nc(-c2ccccc2)oc1=O	0.2%	0.7	-27.4	-11.7	8.1	-0.5
Cc1c(C(=O)NCc2ccc(Cl)c(Cl)c2)sc(=O)n1Cc1ccc(S(=O)(=O)N(C)C)cc1	2.8%	4.2	9.1	.	-3.9	-0.2
O=C(CSc1nnc(-c2ccc(S(=O)(=O)N3CCCC3)cc2)n1CC1CCCO1)NC1CC1 (configuration not stated)	-1.2%	-4.4	-5.8	-3.6	-8.1	1.1
O=S(=O)(NC1CCCCC1N1CCN(c2cccc(Cl)c2)CC1)c1ccccc1 (configuration not stated)	-0.3%	-2.9	-24.9	87.2	-9.4	0.7
O=C1NC[C@@H](CCCCN2C[C@H](Cc3ccc(O)cc3)N(CCC3CCCCC3)C(=O)C2=O)N(CCc2ccc(O)cc2)C1=O	-0.1%	.	.	.	-23.0	-0.1
Cc1ncc(C23CC4CC(CC(C4)C2)C3)[nH]1	-1.1%	0.6	-3.2	16.2	-1.1	2.4
COC(=O)c1cn(-c2cccc(C)n2)cn1	0.2%	4.5	2.0	-6.2	1.4	-0.7
COc1ccc(OC)c(C2=NOC(C(=O)Nc3cccnc3)C2)c1 (configuration not stated)	0.8%[38.3 µM]	1.3	-0.3	4.1	-1.3	-0.7
COc1cccc(-c2ncc3ccccc3c2COC(=O)c2ccc(F)cc2)c1	11.7%	-1.0	-7.8	13.6	-3.9	1.6
COc1ccc(OC)c(CNC(=O)c2ccccc2NC(=O)c2nsc3ccccc23)c1	4.4%	.	.	-8.9	.	1.5
Cc1ccc2[nH]c(CSc3ccccc3)cc(=O)c2c1	3.3%	-5.6	-6.2	-4.4	-11.1	-0.4
Cc1sc(NC(=O)c2ccc3ncsc3c2)c(C(N)=O)c1C	1.8%	-5.3	-6.6	3.6	?	-0.5
O=C(N/N=C/c1ccc(-c2ccccc2)o1)c1ccccc1O	5.8%	-4.2	-8.0	-15.5	-22.1	-0.4
O=C(OCc1nc2ccc(Cl)cc2n1CCO)c1ccccc1	-0.4%	-1.9	-8.4	-6.5	5.7	-0.1
CCn1cc(C(=O)NC(C)C)c(=O)c2cc(F)c(N3CCN(C(=O)c4ccco4)CC3)cc21	2.8%	0.1	-0.4	-9.7	-1.3	-0.9
COc1ccc([N+](=O)[O-])cc1NC(=O)c1ccc(-n2nc(C)cc2C)cc1	6.5%	6.1	8.5	-16.4	-4.9	0.8
O=C1CN(C(=O)COC(=O)CNS(=O)(=O)/C=C/c2ccccc2)c2ccccc2N1	-1.9%	1.1	-12.0	-3.8	-1.5	-0.3
CCOc1ccccc1NC(=O)c1ccc2c(c1)CCCN2S(C)(=O)=O	3.6%	.	.	19.7	.	-0.6
C=CCn1c(-c2cc(Cl)ccc2OC)n[nH]c1=S	-1.4%	-0.8	-10.3	6.9	10.5	0.9
CCOC(=O)c1sc2nc(-c3cccnc3)ccc2c1N	4.0%	-0.5	-0.3	-6.3	2.9	0.9
COc1cc(NC(=S)NCCCO)c(OC)cc1Cl	0.3%	-3.9	-5.0	-1.4	5.8	0.0
O=C(CCn1c2c(c3ccccc31)CCCC2)NNC(=O)c1ccccc1[N+](=O)[O-]	1.4%	2.1	1.6	12.8	-23.8	0.1
O=c1c2ccccc2nc(/C=C/c2c[nH]c3ccccc23)n1-c1ccc([N+](=O)[O-])cc1	2.5%	2.8	1.6	-0.8	4.8	0.9
CC(C)(NS(=O)(=O)OCC(Cl)(Cl)Cl)c1ccccc1	7.0%	-6.5	-4.6	3.4	1.7	0.0
NC(=O)CSc1ncc(-c2ccccc2)[nH]1	25.1%[38.3 µM]	-1.0	-6.1	2.5	6.4	0.5
